Source: PubChem BioAssay (several laboratories)
UCH37 DUB inh: blocks the human deubiquitinase UCH37. purified proteasome/UCH37, Ub-AMC cleavage fluorescence. inhibition, % (test concentration not listed). 330,000 compounds, 0.33% hits. AID 588478;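 active = mean of two replicates above 20%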;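 note: 0% = compound-free wells with enzyme and 100% = wells lacking proteasome; stock transfer was 100 nL into about 20 µL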
Target sequence (Q9Y5K5 whole entry, looked up): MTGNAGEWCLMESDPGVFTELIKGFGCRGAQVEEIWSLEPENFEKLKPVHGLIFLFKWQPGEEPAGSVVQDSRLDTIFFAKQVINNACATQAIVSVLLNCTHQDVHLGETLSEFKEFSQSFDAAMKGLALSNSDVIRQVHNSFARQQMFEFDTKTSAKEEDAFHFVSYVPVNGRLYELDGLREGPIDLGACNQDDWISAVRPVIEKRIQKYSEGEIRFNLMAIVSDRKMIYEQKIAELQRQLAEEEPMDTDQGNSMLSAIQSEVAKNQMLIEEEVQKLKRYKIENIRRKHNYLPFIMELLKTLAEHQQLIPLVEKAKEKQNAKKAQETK
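Test system – human UCH37 enzyme supplied as purified proteasome complex · Incubation – 30 min preincubation with enzyme, 25 min cleavage at room temperature · Detection – AMC fluorescence from Ub-AMC cleavage, excitation 355 nm, emission 460 nm · Benchmarks – no-proteasome wells (full inhibition) and compound-free wells (no inhibition)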
Ecoli rRNA inh: selective bacterial rRNA inhibition in E. coli; E. coli WT GFP vs humanized-ribosome RFP mutants, fluorescence, 24 h; active compounds read low; DMSO median 0, no signal -100; GFP signal change (wild-type ribosome), % (concentration not given with the values); 350,000 compounds, 1.6% hits; AID 720706;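 active = significant combined selectivity score with lowered wild-type GFP, culture density cut under 30%, mutant RFP and density less affected; inactive = any of these conditions unmet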; note: one replicate is shown; some compounds called inactive have numbers as strong as hits
E coli growth: blocks Escherichia coli growth. AID 1053175. 330,000 compounds, 0.21% hits. OD600, 23 h; active compounds read low. OD600 absorbance (concentration not given with the values);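 active = OD600 absorbance below the run mean of sample wells minus 3.6 SD, in any replicate, cut at about 0.56 in these data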;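 note: stock transfer was 300 nL into about 60 µL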
A1 inh: inhibitors of the anti-apoptotic protein A1, read as caspase activation. MEF A1-2A-BIM cells, Caspase-Glo 3/7 luminescence, 3 h; percent of clofoctol response, vehicle zero. caspase activation, % (no concentration beside the values). 330,000 compounds, 0.066% hits;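 active = over half of replicate activation scores above 10%, or exactly half above 10 with the replicate mean above 10; inconclusive = replicate mean below 10 yet half the replicates above 10; inactive = over half of replicates below 10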;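 note: wells of about 30 µL received 50 nL stock; many hits fall short of the cut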
MLL AF4-AF9 inh: blocks AF4 peptide binding to human AF9; P42568; AlphaScreen, biotin-AF4 peptide binding to FLAG-AF9; inhibition, % at 10 µM; 350,000 compounds, 0.47% hits;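 active = every replicate reaching a set inhibition limit, whatever the replicate mean, cut at about 25% in these data; inconclusive = mean inhibition reaches that limit but some replicates miss it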;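 note: 0% = plate neutral control median and 100% = total signal loss; the record names both 10 and 1 µM as test concentration; the first replicate is given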
Target sequence (P42568 whole entry, looked up): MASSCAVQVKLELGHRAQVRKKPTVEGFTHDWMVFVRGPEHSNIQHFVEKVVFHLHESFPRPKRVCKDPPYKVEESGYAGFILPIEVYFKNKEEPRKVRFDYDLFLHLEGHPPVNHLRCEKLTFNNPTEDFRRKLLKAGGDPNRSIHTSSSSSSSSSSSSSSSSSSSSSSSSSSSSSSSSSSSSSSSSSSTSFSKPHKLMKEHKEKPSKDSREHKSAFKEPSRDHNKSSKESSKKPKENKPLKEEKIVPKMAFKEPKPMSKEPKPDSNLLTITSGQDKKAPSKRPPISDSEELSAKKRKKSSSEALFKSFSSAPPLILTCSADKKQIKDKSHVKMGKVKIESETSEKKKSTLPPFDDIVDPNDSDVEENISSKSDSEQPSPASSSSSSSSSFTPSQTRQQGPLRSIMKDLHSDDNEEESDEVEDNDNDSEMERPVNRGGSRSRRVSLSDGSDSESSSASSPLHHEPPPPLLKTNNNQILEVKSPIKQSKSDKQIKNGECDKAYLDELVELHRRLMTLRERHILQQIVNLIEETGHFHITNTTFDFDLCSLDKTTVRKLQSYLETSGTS
FGF22 binding: FGF22 (human) thermal shift binding | AID 651658 | recombinant FGF22 thermal shift, SYPRO orange fluorescence; percent of sucrose octasulfate shift, DMSO zero | 340,000 compounds, 1.5% hits | Q9HCT0 | calls only at 9.99 µM;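 active = melting point raised past a set limit in the mean and every replicate; inconclusive = no clear call; three in four hits are not shown here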
Target sequence (Q9HCT0 whole entry, looked up): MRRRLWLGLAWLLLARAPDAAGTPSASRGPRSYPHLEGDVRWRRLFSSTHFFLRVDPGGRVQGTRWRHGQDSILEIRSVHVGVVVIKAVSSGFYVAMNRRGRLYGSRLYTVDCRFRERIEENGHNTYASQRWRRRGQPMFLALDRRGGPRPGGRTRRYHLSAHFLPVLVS
T cruzi repl: blocks replication of Trypanosoma cruzi; T. cruzi beta-gal in NIH3T3, luminescence, 90 h; inhibition, % (no concentration beside the values); 300,000 compounds, 1.4% hits;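 active = mean inhibition across valid replicates above about 55%, limit read from the data; inconclusive = mean below that limit but half or more replicates reach it; inactive = mean below it, under half of replicates reach it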;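 note: signal also drops with host cell toxicity which is not excluded here; 0% = plate median of DMSO wells and 100% = zero luminescence signal; higher percent means less beta-gal luminescence so fewer parasites; stock transfer was 50 nL into about 50 µL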
Beta apoptosis: beta cell apoptosis inhibition; AID 435005; protection from apoptosis, % (no concentration beside the values); INS-1E cytokine-induced death, ATP luminescence, 48 h; percent of positive-control rescue, neutral wells zero; 300,000 compounds, 0.8% hits;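 active = all replicates at 75% or more, or half of them and the mean; inconclusive = half reach 75% but not the mean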;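 note: 0% = cytokine-treated negative control wells and 100% = positive control rescue; higher means more ATP so stronger rescue from cytokine killing; wells of about 40 µL received 100 nL stock; the first replicate is given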
Ecoli rRNA inh OD600: also measured in Ecoli rRNA inh; calls as there; OD600 change, %; measured here: OD600 growth;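 optical density of the mix in the first replicate; 0 = DMSO median and -100 = no signal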
Ecoli rRNA inh RFP: recorded beside Ecoli rRNA inh, whose call it bears; RFP signal change, %; measured here: RFP humanized mutant strains;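 first replicate; 0 = DMSO median and -100 = no signal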
The depositor's hits bear a star; i = inactive; ? = inconclusive; nt = not tested or not shown. A portion of the library; rates above refer to the full screens.

SMILES	UCH37 DUB inh	Ecoli rRNA inh	Ecoli rRNA inh OD600	Ecoli rRNA inh RFP	E coli growth	A1 inh	MLL AF4-AF9 inh	FGF22 binding	T cruzi repl	Beta apoptosis
Cc1csc(CN(C)C(=O)CC2C(=O)NCCN2Cc2ccc(F)cc2Cl)n1 (stereo not given)	-42	7	5	-0.2	0.67	0.4	1.3	i	-8	-8
O=C(c1ccc(OC2CCN(C/C=C/c3ccccc3)CC2)cc1)N1CCCC1	1.5	8	0	1.2	0.75	0.3	2.6	i	27	-2
Cc1cccc(NS(=O)(=O)c2ccc3[nH]c(=O)cc(C(=O)O)c3c2)c1	nt	-15*	9.7*	-5.4*	nt	0.0	-2.4	i	3	-3
Cc1cccc(NC(=S)NC2CCCC2)c1C	0.8	3	2	-0.6	0.71	?	-2.4	i	-9	nt
O=C(c1ccc(Cl)cc1)[C@@H]1[C@@H]2C(=O)N(c3ccccc3)C(=O)[C@@H]2C2c3ccccc3C=NN21 (stereo not given in full)	3.7	nt	nt	nt	0.74	0.0	nt	nt	-5	-2
CCOc1ccc(OCC)c(NC(=O)CN2CCN(c3ccc(C)cc3C)CC2)c1	1.5	nt	nt	nt	0.74	-0.1	nt	nt	65*	9
CC(C)N(Cc1nccn1C)C(=O)CC1C(=O)NCCN1Cc1ccccc1C(F)(F)F (stereo not given)	-3.0	14	-1	2.1	0.69	0.3	-1.5	i	-9	-6
CCc1ccc(N2CN(CCc3ccccc3)CNC2=S)cc1	3.1	nt	nt	nt	0.66	0.7	-2.2	i	nt	1
COc1ccc(-n2nc(C(=O)NCC(=O)Nc3cccc(C)n3)c3ccccc3c2=O)cc1	-211	nt	nt	nt	0.72	0.5	nt	nt	2	-3
COc1cc(-c2n[nH]c(=S)n2/N=C/c2cccn2C)cc(OC)c1OC	nt	-9	0	-3.5	nt	1.4	-2.4	i	-23	-16
COc1ccccc1NC(=O)COC(=O)c1ccc(S(=O)(=O)NCc2ccco2)cc1	4.5	nt	nt	nt	0.77	0.3	nt	nt	1	-1
COc1cccc(/C(O)=C2/C(=O)C(=O)N(c3ccccn3)C2c2ccc(OC)c(OC)c2)c1 (stereo not given)	6.7	nt	nt	nt	0.68	-0.2	nt	nt	-5	-3
CC1(C)CC(=O)C=C(NCCN2CCN(C(=O)Nc3ccc(Cl)c(Cl)c3)CC2)C1	3.3	nt	nt	nt	0.74	2.7	nt	nt	-1	-1
O=C(NNC(=O)c1cccnc1Cl)c1ccc(F)cc1	3.7	7	18	0.6	0.73	-1.0	-3.0	i	0	-7
Cc1[nH]n(-c2ccccc2)c(=O)c1C=NC1CCCCC1	3.2	0	-3	0.2	0.7	-0.4	0.0	i	6	4
CC(C)c1ccc(S(=O)(=O)c2nnn3c2nc(NCC2CCCO2)c2ccccc23)cc1 (stereo not given)	-46	nt	nt	nt	0.71	0.1	nt	nt	-13	9
O=[N+]([O-])c1cnccc1Nc1ccccc1	7.3	nt	nt	nt	0.66	-0.4	nt	nt	-6	-3
O=C(CCNS(=O)(=O)c1ccc(Br)cc1)NCC1CCCO1 (stereo not given)	1.5	5	20	0.4	0.66	0.5	-6.7	i	nt	-3
CCC(=O)Nc1nnc(SCc2cccc(F)c2)s1	1.7	11	5	0.8	0.67	-0.6	-1.6	i	16	-4
C=CCn1c(-c2ccccc2)nc(=S)c2c1CC(C)(C)OC2	11	nt	nt	nt	0.72	-0.3	nt	nt	-18	-3
COc1ccccc1/C=N/Nc1nc(C)c(C(C)=O)s1	nt	2	8	-0.7	nt	-1.2	-5.7	i	6	1
COc1cc(OC)c(/C=N/NC(=O)c2ccc(Cn3nc([N+](=O)[O-])cc3C)cc2)c(OC)c1	nt	nt	nt	nt	nt	-1.2	-2.9	i	1	-11
CC(=O)N1CCC(C(=O)Nc2ccc(S(=O)(=O)NCCc3ccccc3)cc2)CC1	-0.4	4	1	1.2	0.64	0.7	0.6	i	-4	-3
Cc1nc(-c2cc(-c3nc(-c4ccc(C(C)(C)C)cc4)no3)no2)cs1	3.0	10	11	1.7	0.64	0.1	-4.0	i	-15	5
CCOc1cccc(C(=O)Nc2cccc(C(C)=O)c2)c1	-0.2	nt	nt	nt	0.63	0.3	nt	nt	0	-14
(further entries)
SMILES	UCH37 DUB inh	Ecoli rRNA inh	Ecoli rRNA inh OD600	Ecoli rRNA inh RFP	E coli growth	A1 inh	MLL AF4-AF9 inh	FGF22 binding	T cruzi repl	Beta apoptosis
C=CC[C@@H](CC(=O)NCCO)C(=O)N[C@H](C)COC(=O)[C@@H](CC=C)CC(=O)OC(C)(C)C	4.0	7	-6	1.8	nt	?	-25	i	nt	-2
O=c1c(-c2ccccc2)c(O)c2ccccc2n1-c1ccccc1	-0.6	4	11	0.6	0.7	-0.1	-3.3	i	2	-12
O=C(NC1CC2CCC(C1)N2C(=O)NCc1ccccc1)C1CC1 (stereo not given)	-0.1	nt	nt	nt	0.71	0.1	nt	nt	-19	-7
CNC(=O)c1cc2cc(OC)ccc2n1CCN(C)C	-20	nt	nt	nt	0.73	0.2	nt	nt	-6	-3
CCCCC(=O)Nc1ccc(C(=O)OC2CCCCC2)cc1	5.9	nt	nt	nt	0.65	-0.7	nt	nt	16	6
COc1ccc(C(CNC(=O)c2cc(S(=O)(=O)NCc3ccccc3)ccc2C)N2CCOCC2)cc1 (stereo not given)	0.0	0	3	-1.4	0.6	-0.4	3.8	i	10	0
CCOc1cc(/C=C2\CCC/C(=C\c3cc(Cl)c(O)c(OCC)c3)C2=O)cc(Cl)c1O	7.1	nt	nt	nt	0.78	-0.8	nt	nt	22	75*
CC(C)CNS(=O)(=O)c1ccc(CCC(=O)NCc2cccnc2)cc1	3.5	nt	nt	nt	0.66	0.0	nt	nt	-16	1
Cc1c(C(=O)N2CC(C)OC(C)C2)oc2ccccc12 (stereo not given)	0.9	nt	nt	nt	0.65	0.1	nt	nt	-12	-8
Cc1ccc(C)c(S(=O)(=O)N2CCN(C(C)C(=O)Nc3ccccc3-c3ccccc3)CC2)c1 (stereo not given)	5.0	nt	nt	nt	0.75	0.2	-6.7	i	32	25
C=CC[C@H](CC(=O)N(CCO)Cc1ccccc1)C(=O)NCCOC(=O)[C@@H](CC=C)CC(=O)OC(C)(C)C	4.3	-8	-3	20	nt	1.0	-2.2	i	nt	-3
Cc1cccn2c(=O)c3cc(C(N)=S)c(=N)n(CCCN4CCOCC4)c3nc12	-12	3	-1	-6.3	0.63	-1.7	0.9	i	24	10
Cc1ccc(C)c(N2CCN(C(c3ccncc3)c3nnnn3Cc3ccccc3)CC2)c1 (stereo not given)	2.1	nt	nt	nt	0.7	-1.2	nt	nt	-23	0
C=CCNC(=O)CN(c1cccc(Br)c1)S(C)(=O)=O	-1.5	nt	nt	nt	0.71	0.3	nt	nt	-7	nt
NC(=O)NC(Cc1ccccc1)C(=O)O (stereo not given)	1.5	nt	nt	nt	0.72	0.6	nt	nt	-8	0
Cc1cccc(C)c1NC(=O)CSc1nnc(C)c(=O)[nH]1	-0.5	13	13	1.1	0.71	0.7	-0.7	i	-3	1
CCCCN(C(=O)C(C)Oc1cccc(Cl)c1)c1c(N)n(CCC)c(=O)[nH]c1=O (stereo not given)	2.8	11	14	0.6	0.71	-0.3	-2.2	i	2	-4
O=C(Nc1nnc(S(=O)(=O)N2CCCCCC2)s1)c1cccc(Br)c1	1.9	-7	-12	-5.3	0.72	-2.1	-0.8	i	-6	26
COc1cc(OC)cc(-c2sc3ccc(OC)cc3c2C#CCO)c1	nt	-27	-59	22	nt	-0.3	nt	i	nt	-5
COc1cccc(N=C2C(=O)N3CCCc4cccc2c43)c1	1.2	5	7	-0.1	0.64	0.4	-0.9	i	5	2
COC(=O)c1ccc(OCC(=O)Nc2ccsc2C(=O)OC)cc1	0.3	8	34	-5.1	0.72	-3.1	-1.1	i	-21	4
O=c1cnnc(SCCc2ccccc2)[nH]1	2.1	nt	nt	nt	0.67	-0.7	nt	nt	-7	-5
O=C(O)c1cccc(NCc2ccncc2)c1	3.5	27	4	0.9	0.64	0.2	-1.2	i	-6	8
CCOc1ccc(N(CC(=O)NCC2CCCO2)C(=O)CCC(=O)Nc2nccs2)cc1 (stereo not given)	-2.2	8	6	1.1	0.66	0.2	3.2	i	-6	-1
O=C(O)CN(Cc1ccco1)S(=O)(=O)c1ccccc1	-1.0	nt	nt	nt	0.75	-0.2	nt	nt	-8	-13
Going on with the list:
SMILES	UCH37 DUB inh	Ecoli rRNA inh	Ecoli rRNA inh OD600	Ecoli rRNA inh RFP	E coli growth	A1 inh	MLL AF4-AF9 inh	FGF22 binding	T cruzi repl	Beta apoptosis
COc1ccc2cc(/C=C/C(=O)N3CCN(CC(=O)N4CCCCCC4)CC3)ccc2c1	-253	nt	nt	nt	0.63	0.2	nt	nt	31	-2
O=C(Nc1ccccc1F)Nc1ccccc1N1CCCCC1	4.1	-31*	-24*	-1.9*	0.64	3.3	-0.8	i	9	7
O=C(CCN1C(=O)C2C3CCC(C3)C2C1=O)Nc1ccccc1Cl (stereo not given)	3.2	-6	-3	5.6	0.69	2.5	-1.8	i	-11	2
C=CC(COCc1ccccc1)N(CC(=O)OC)S(=O)(=O)c1cc(Br)ccc1OC (stereo not given)	3.3	-14	-26	-16	0.7	1.2	-20	i	nt	1
Cc1cc(C)c(NC(=O)COC(=O)Cc2cccs2)c(C)c1	-0.9	0	-13	-0.6	0.64	0.4	-4.5	i	2	4
COC(=O)c1sccc1NC(=O)c1cc2c(s1)CCCC2	-7.1	nt	nt	nt	0.65	-2.3	nt	nt	3	3
O=C(C[n+]1cccc2ccccc21)c1ccccc1	-5.7	nt	nt	nt	0.71	1.0	nt	nt	12	-14
Cc1nn(Cc2cccc(C(=O)N3N=C(C(F)F)CC3(O)C(F)F)c2)c(C)c1[N+](=O)[O-] (stereo not given)	3.0	-16	-4	-2.0	0.67	0.3	4.0	i	-23	8
CCN(CC)CCNC(C(=O)Nc1cc(C(F)(F)F)ccc1Cl)c1ccccc1 (stereo not given)	0.6	nt	nt	nt	0.68	0.3	nt	nt	4	-11
O=C(Cn1nnc(-c2ccc3c(c2)OCO3)n1)Nc1ccccc1C(=O)O	5.0	-6	-17	-8.9	0.69	-5.6	-13	i	11	2
O=C(NOCc1ccccc1)c1ccc([N+](=O)[O-])cc1	1.5	16	10	3.8	0.67	-0.8	-7.2	i	nt	-1
Cc1ccc(S(=O)(=O)NC2=NCN(Cc3ccccc3)CN2)cc1	0.9	nt	nt	nt	0.7	-0.1	nt	nt	-6	-5
O=C(CN1CCN(c2ccccc2O)CC1)Nc1cccnc1Cl	4.8	2	-3	0.6	0.67	-0.2	1.1	i	-6	5
CCNC(=O)c1cccc(S(=O)(=O)N2CCCCCC2)c1	1.7	7	8	0.1	0.67	0.4	4.3	i	-4	-6
C=CCNC(=S)N/N=C/c1cn(-c2ccccc2)nc1-c1ccc(OC)cc1	nt	-5	-24	-3.3	nt	-0.2	0.9	i	-2	4
FC(F)(F)c1ccncc1-c1nnc(C2CCCCC2)o1	4.5	23	21	2.1	0.63	-0.1	-3.3	i	-12	nt
